CBX7 inh – blocks human CBX7 binding to H3K27me3 peptide. AlphaScreen His6-CBX7 / biotin-H3K27me3 peptide binding; active compounds read low. normalised signal (fraction of DMSO) (test concentration not listed). 1.1% of 66,000 active. AID 1224903; in the data active means normalised signal below about 0.5;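 further: 100 nL library stock added to about 20 µL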
Target sequence (O95931 whole entry, looked up): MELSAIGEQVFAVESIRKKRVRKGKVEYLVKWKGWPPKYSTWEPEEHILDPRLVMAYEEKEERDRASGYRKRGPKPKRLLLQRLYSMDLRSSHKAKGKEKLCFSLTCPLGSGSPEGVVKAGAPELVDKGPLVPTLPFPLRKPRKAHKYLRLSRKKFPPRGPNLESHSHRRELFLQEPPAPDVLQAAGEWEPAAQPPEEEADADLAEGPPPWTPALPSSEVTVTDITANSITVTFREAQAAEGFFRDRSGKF
CBX7 inh z-score – second read-out of CBX7 inh, no call of its own (marks repeat the call); z-score; measured here: z-score of CBX7 signal; some inactives read as strong as hits; reference of the scale not given here;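 same signal on another scale; lower means less binding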
Starred values were filed as active, the others as inactive. Some of the compounds tested; the hit share may differ from the screen's.

Structure	CBX7 inh z-score	CBX7 inh
COc1ccc(NC(=O)c2cc3n(n2)C(C(F)(F)F)CC(c2ccc4c(c2)OCO4)N3)cc1Cl (stereo not given)	-0.12	0.88
CCOc1ccc(NC(=O)NCCCN2CCCC2)cc1	2	1.1
COc1cccc(N2C(=O)CC(NCc3ccc(S(N)(=O)=O)cc3)C2=O)c1 (stereo not given)	0.33	1
Cc1ccc(NC2=NS(=O)(=O)c3ccccc32)cc1Cl	-0.54	0.95
CC(=O)Nc1c(C(=O)c2ccccc2)oc2ccccc12	2.8	1.1
COc1ccc(-c2nc(C#N)c(NC3CC3)o2)cc1	-0.55	0.96
Cc1cc(N2CCN(C)CC2)nc2ccc(NC(=O)C3CCC(C)CC3)cc12 (stereo not given)	3.1	1.2
Cc1ccc(NC(=O)C2CCCN(S(=O)(=O)c3c(C)noc3/C=C/c3cccs3)C2)cc1 (stereo not given)	-1.2	0.93
O=c1c2cccnc2n(Cc2cccc(C(F)(F)F)c2)c(=O)n1Cc1ccccc1Cl	3.9	1.2
CCOC(=O)c1c(C)n(-c2ccc(C)cc2)c2ccc(OCC(O)CNC3CCCCC3)cc12 (stereo not given)	-5.5	0.73
Cc1cccc(Nc2nc(-c3c(C)nc4ccccn34)cs2)c1	0.018	1
COc1ccc(CNc2nc3ccccc3nc2NS(=O)(=O)c2ccccc2)cc1	-0.24	0.99
Cc1ccccc1-c1nc2cc(NC(=O)c3ccc(F)cc3)ccc2o1	-0.98	0.98
CCOc1ccc2nc(N3CCC(C(=O)NCCc4ccc(S(N)(=O)=O)cc4)CC3)sc2c1	0.091	1.1
CC(NC(=O)c1ccc(N(C)C)cc1)C(c1cccs1)N1CCN(C)CC1 (stereo not given)	1	1.1

The closing 7 compounds of the part above come first, to join the parts:
Structure	CBX7 inh z-score	CBX7 inh
O=c1c2cccnc2n(Cc2cccc(C(F)(F)F)c2)c(=O)n1Cc1ccccc1Cl	3.9	1.2
CCOC(=O)c1c(C)n(-c2ccc(C)cc2)c2ccc(OCC(O)CNC3CCCCC3)cc12 (stereo not given)	-5.5	0.73
Cc1cccc(Nc2nc(-c3c(C)nc4ccccn34)cs2)c1	0.018	1
COc1ccc(CNc2nc3ccccc3nc2NS(=O)(=O)c2ccccc2)cc1	-0.24	0.99
Cc1ccccc1-c1nc2cc(NC(=O)c3ccc(F)cc3)ccc2o1	-0.98	0.98
CCOc1ccc2nc(N3CCC(C(=O)NCCc4ccc(S(N)(=O)=O)cc4)CC3)sc2c1	0.091	1.1
CC(NC(=O)c1ccc(N(C)C)cc1)C(c1cccs1)N1CCN(C)CC1 (stereo not given)	1	1.1
CCC1Sc2ccccc2N(CC(=O)NCc2ccccc2Cl)C1=O (stereo not given)	3.4	1.1
CCN(CC)S(=O)(=O)c1ccc2oc(C(=O)Nc3cccc(Cl)c3)c(C)c2c1	1.4	1
CCOC(=O)c1oc2ccc(S(=O)(=O)N3CCCC(C)C3)cc2c1C (stereo not given)	1.4	1.1
COc1ccc(-c2cc(C(F)(F)F)nc(-n3cc(Cl)cn3)n2)cc1	2.9	1.1
COC(=O)c1ccc(N2C(=O)CC(NCCN3CCOCC3)C2=O)cc1 (stereo not given)	-2.3	0.92
Cc1ccc(Cn2nnc3c(=O)n(CC(=O)NCC4CCCO4)cnc32)cc1 (stereo not given)	-1.8	0.89
CCCN1CCN(CCCNC(=O)Cn2nc(-c3ccccc3)ccc2=O)CC1	0.32	1
O=c1c(S(=O)(=O)c2ccccc2)c[nH]c2ccccc12	-0.31	0.93
COc1ccc(OC)c(CNC(=O)C2CCCN(S(C)(=O)=O)C2)c1 (stereo not given)	1.7	1.1
Cc1ccc(-c2nc3ncccc3o2)cc1NC(=O)c1cc([N+](=O)[O-])ccc1Cl	-2.5	0.84
O=C1CCCC2=C1C(c1ccccc1)Nc1ccccc1N2 (stereo not given)	0.79	1.1
CCOc1ccc(-n2nc(C(=O)N3CCN(c4ccc(OC)cc4)CC3)c3ccccc3c2=O)cc1	-3.3	0.88
CCN(CCCNC(=O)c1cn(CC(C)C)c(=O)c2cc(OC)c(OC)cc12)c1cccc(C)c1	-1	0.87
O=C(Cn1c(C(F)(F)F)nc2ccccc21)c1ccc(OC(F)F)cc1	0.67	1.1
Cc1ccccc1-c1nc(CN2CCC(C(=O)NC3CCCC3)CC2)c(C)o1	-2.2	0.86

Further compounds follow.
Structure	CBX7 inh z-score	CBX7 inh
COc1cccc(-c2nc(C(=O)NCCc3ccccc3)c(C)o2)c1	-0.75	0.94
COc1ccc(Nc2cc(C(=O)NC(C)c3ccccc3)c3ccccc3n2)c(OC)c1 (stereo not given)	-3.6	0.77
COc1cccc(NC(=O)c2sc3ncn(CC(=O)N4CCCCC4C)c(=O)c3c2C)c1 (stereo not given)	-0.18	0.99
O=C1CC(c2ccccc2)Sc2ccccc2N1Cc1ccccc1F (stereo not given)	-0.22	0.99
COc1ccc(N2C(=O)C(CC(=O)Nc3ccc(F)cc3)N(Cc3ccc4c(c3)OCO4)C2=O)cc1 (stereo not given)	-0.25	0.99
CCCCNC(=O)c1cnc(Nc2ccc(OC)cc2)c2ccccc12	1.8	1.1
CCCCCn1c(CNC(=O)c2cccs2)nc2ccccc21	-1	0.91
Cc1cccc(C2(c3cccc(C)c3)CC2C(=O)N2CCCCC2)c1 (stereo not given)	-4.9	0.56
Cc1cc(OCC(O)CN2CCCCC2C)ccc1Cl (stereo not given)	1.5	1.1
Cc1ccc(Nc2nc(-c3ccccc3)c3cc(Cl)ccc3n2)c(C)c1	17	1.6
N#CCCN(CCC#N)S(=O)(=O)c1ccc(C(=O)Nc2nnc(C3CC3)o2)cc1	-2.8*	0.0021*
Cc1ccc(N2C(=O)c3ccccc3C2Nc2ccc(Cl)cc2Cl)nc1 (stereo not given)	-1.7	0.87
Cc1ccc(CN2CC34C=CC(O3)C(C(=O)NCc3ccc(F)cc3)C4C2=O)cc1 (stereo not given)	-0.54	0.99
COc1ccc(CN2CC(C(=O)NCCCN3CCCCCC3)CC2=O)cc1 (stereo not given)	5.5	1.3
COc1ccc(-n2ncc3c(Nc4ccc(OCc5ccccc5)cc4)ncnc32)cc1	-0.91	0.74

Additional records follow.
Structure	CBX7 inh z-score	CBX7 inh
CCCOc1cccc(-c2cc(C(=O)NCCCN3CCOCC3)c3ccccc3n2)c1	0.77	1
CCOC(=O)c1ccccc1NCc1c(C(=O)OCC)nnn1-c1nonc1N	0.37	1
COc1ccc(-c2cc(C(=O)Nc3ccc4c(c3)OCO4)no2)cc1	-0.6	0.97
COc1nnc(-c2ccc(C)c(S(N)(=O)=O)c2)c2ccccc12	1.1	1.1
FC(F)(F)c1cccc(-n2cc(-c3ccccc3)c3c(NCc4cccnc4)ncnc32)c1	-13	0.53
c1ccc(Nc2c(-c3ccccc3)nc3ncccn23)cc1	-1	0.95
O=C1c2ccccc2C(=O)N1CCCc1nc(-c2ccc(Cl)cc2)no1	-1.2	0.9
CCCCCOc1ccc(NC(=O)C(=O)NCCc2c[nH]c3ccccc23)cc1	-0.59	0.95
CCOc1ccc(CCNC(=O)c2ccc3c(c2)N(Cc2ccc(F)cc2)CCS3)cc1	-0.27	0.99
CCOC(=O)c1cnc2c(OC)cccc2c1Nc1ccc(C(F)(F)F)cc1	0.095	1.1
CCN(Cc1ccccc1)S(=O)(=O)c1ccc2c(c1)CCN2C(=O)C1CC1	1.7	1.1
CC1CCCCC1NC(=O)C1c2cccn2CC(=O)N1Cc1ccccc1 (stereo not given)	1.7	1.1
O=C(Nc1nnc(Cc2ccccc2)s1)c1ccccc1	0.16	1
CCN(CCCNC(=O)C1CCN(S(=O)(=O)c2cccc3nonc23)CC1)Cc1ccccc1	0.08	1.1
Cc1ccc(NC2c3ccccc3C(=O)N2Cc2ccccc2Cl)cc1C (stereo not given)	-0.51	0.95

5 entries picked at random from those above, as already listed:
Structure	CBX7 inh z-score	CBX7 inh
FC(F)(F)c1cccc(-n2cc(-c3ccccc3)c3c(NCc4cccnc4)ncnc32)c1	-13	0.53
CCCCCOc1ccc(NC(=O)C(=O)NCCc2c[nH]c3ccccc23)cc1	-0.59	0.95
CCOC(=O)c1ccccc1NCc1c(C(=O)OCC)nnn1-c1nonc1N	0.37	1
CCCOc1cccc(-c2cc(C(=O)NCCCN3CCOCC3)c3ccccc3n2)c1	0.77	1
CCN(Cc1ccccc1)S(=O)(=O)c1ccc2c(c1)CCN2C(=O)C1CC1	1.7	1.1

Additional records
Structure	CBX7 inh z-score	CBX7 inh
O=C(NCCc1ccccc1)c1cc(-c2cccs2)on1	-0.086	0.91
O=c1cc(N2CCCC2)[nH]c(=O)n1-c1ccc(Cl)cc1	0.65	1
COc1cccc(C(=O)Nc2c(-c3ccccc3)nc3cc(C)ccn23)c1	-0.76	0.97
CCc1ccc2c(c1)c(=O)c(S(=O)(=O)c1ccc(Cl)cc1)cn2CC(=O)Nc1ccc(F)cc1	2.7	1.1
COc1ccc(CNC(=O)CN2CCN(Cc3ccccc3C)C2=O)cc1	-1.3	0.94
Cc1cccc2c1-c1sc(C(=O)NCCN3CCCCC3C)cc1CO2 (stereo not given)	8.4	1.3
Cc1ccccc1C(=O)NCC1CCCN2CCCCC12 (stereo not given)	0.62	1
CCCNC(=O)c1nc(-c2cccc(OC)c2)oc1C	-0.93	0.95
CCOC(=O)C1CCN(c2c(N3CCN(c4ccc(F)cc4)CC3)c(=O)c2=O)CC1	0.34	1
Cc1ccc(NC(=O)c2cc(=O)[nH]c3ccccc23)cc1	-0.3	0.98
CC1CC(C)CN(C(=O)CN2C(=O)CC(C)(C)Sc3ccccc32)C1 (stereo not given)	1.4	1
COc1cc2c(cc1OC)-c1nncn1C(C)(C)C2	-1.1	0.96
Cc1ccc(C(=O)Nc2ccc(-c3nc4ccccc4o3)cc2)cc1	-0.11	0.99
CCOc1cc(C(=O)Nc2cccc(C)n2)cc(OCC)c1OCC	-0.79	0.88
COc1ccc(CN2CC(C(=O)NCCCN3CCCC3)CC2=O)cc1 (stereo not given)	0.14	1.1

Other entries.
Structure	CBX7 inh z-score	CBX7 inh
COc1ccc(NC(=O)CC2C(=O)N(c3ccc(F)cc3)C(=O)N2CCc2sccc2C)cc1 (stereo not given)	0.24	1
CCOc1ccc(C(F)(F)F)cc1NC(=O)C(c1ccccc1)c1ccccc1	8.2	1.3
COc1ccc(-c2nn(C)c(=O)c3ccccc23)cc1CNC(=O)C1CCCCC1	0.94	1.1
CCC(C)c1ccccc1OCC(O)CN1CC(C)OC(C)C1 (stereo not given)	3	1.1
O=C1CCc2c1[nH]c1ccc(OCc3ccccc3)cc21	0.54	1
Cc1ccc(NC(=O)c2c(-c3c(Cl)cccc3Cl)noc2C)cc1C	4.8	1.2
NS(=O)(=O)c1ccc(CCNC(=O)c2cc3c(s2)-c2ccccc2OC3)cc1	1.7	1.1
CCOc1ccc(OCC)c(NC(=O)C2(S(=O)(=O)c3ccc(C)cc3)CC2)c1	0.11	1
COc1ccc(NC(=O)c2cc(-c3ccco3)on2)cc1OC	0.27	1
COc1ccccc1CNC(=O)Cn1ncc2c1-c1cc(C)ccc1OC2	-1.4	0.95
COc1ccc(OC2C(=O)N(c3ccc(C)c(C)c3)C2c2ccc(OC)c(OC)c2)cc1 (stereo not given)	-0.19	0.95
Cc1c(Cl)cccc1Nc1nc(-c2ccc(Cl)cc2)nc2ccccc12	-0.88	0.92
CCOCCCNC(=O)C1CCN(Cc2nc(-c3ccccc3C)oc2C)CC1	-0.071	0.95
COc1ccc(Cl)cc1NC(=O)CCS(=O)(=O)c1nc(-c2cccs2)cc(C(F)(F)F)n1	-0.19	0.99
CCc1ccc(NC(=O)[C@H](CCS(C)(=O)=O)N2Cc3ccccc3C2=O)cc1	0.35	1

Continuation.
Structure	CBX7 inh z-score	CBX7 inh
COc1ccc(CCNC(=O)C2CCN(S(=O)(=O)c3ccccc3)CC2)cc1	-1.5	0.92
COc1ccc(CNC(=O)CN(C)S(=O)(=O)c2ccc3c(c2)n(C)c(=O)c(=O)n3C)cc1	0.1	1
CCC(C)NC(=O)C1=CCN(S(=O)(=O)c2ccc(Br)cc2)CC1 (stereo not given)	-2.7	0.93
COCCNC(=O)c1ccc2c(c1)ncn2-c1cc(OC)ccc1OC	0.022	1
CC(=O)Nc1nonc1-c1nc2ccccc2n1Cc1ccc(Cl)cc1F	0.033	1
COc1ccccc1CNC(=O)c1cnn2c(C(F)(F)F)cc(-c3ccccc3)nc12	-0.23	0.96
COc1ccc(-c2cc(C(F)(F)F)nc(NCc3cccnc3)n2)cc1	0.69	1
CC(C)c1cc(C(=O)N2CCN(c3ccccc3)CC2)no1	0.083	1.1
CCOc1ccc(C(=O)Nc2ccc3oc(-c4ccc(C)cc4C)nc3c2)cc1	2.5	1.1
Cc1ccc(Cl)cc1N1CCN(CCNC(=O)c2csc3c2CCCCC3)CC1	0.29	1
COCCCNC(=O)c1cc(Sc2ccc(Cl)cc2)nc2ccccc12	0.02	1
Cc1ccc(S(=O)(=O)C2(C(=O)N3CCN(c4ccccc4)CC3)CC2)cc1	-0.31	0.99
Brc1ccc(-c2nn(-c3ccccc3)cc2-c2nc3ccccc3[nH]2)cc1	-1.9	0.86
CCOC(=O)c1c(NC(C)=O)sc2c(OCC(O)CNC(C)(C)C)c(Br)ccc12 (stereo not given)	-3.6	0.89
O=C1CC(Cc2ccccc2)C(=O)N1c1cccc(C(F)(F)F)c1 (stereo not given)	0.22	1

More records:
Structure	CBX7 inh z-score	CBX7 inh
Cc1cccc(OCc2nc(-c3ccc(OCC(N)=O)cc3)no2)c1C	0.11	1
CCC(C(=O)Nc1c2c(nn1-c1ccccc1C)CS(=O)(=O)C2)c1ccccc1 (stereo not given)	1.1	1.2
Cc1sc2ncn(CC(=O)NC(C)C)c(=O)c2c1S(=O)(=O)N1CCN(c2ncccn2)CC1	-0.077	0.99
CCC(=O)NCCc1nc2ccccc2n1Cc1ccccc1C	1.3	1.1
O=C1CN(c2cc(Cl)cc(Cl)c2)S(=O)(=O)c2ccccc2N1	0.35	1
